Screening results from PubChem BioAssay.
Vaccinia inh – blocks a specific stage of Vaccinia orthopoxvirus infection, primary screen, cell-based, single point | AID 1053133, 2014 | 89,000 compounds, 0.01% hits | Vaccinia-infected cells, mCherry/Venus stage reporter fluorescence; hits give low values; some inactives read as strong as hits | activity change (mCherry), % (test concentration not listed);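 active = mCherry past -33% and 40 or more points under the early reporter, replicates agreeing; inconclusive = past -33% without that gap or agreement; tested in A549 cells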;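 also: scaled between vehicle wells and reference inhibitor wells; 23 nL library stock went into each well; one replicate is shown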
Vaccinia inh Venus – second read-out of Vaccinia inh, no call of its own (marks repeat the call); activity change (Venus), %; measured here: Venus reporter, other viral stage;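 negative = less Venus signal; first of two replicates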
Numbers without * were called inactive; ? = inconclusive; . = no result given; & = joins results of further samples. Not all compounds are listed. The share of hits here may be higher or lower than overall.

SMILES	Vaccinia inh	Vaccinia inh Venus
Cc1ccc(S(=O)(=O)N(C)C[C@@H]2OCCCC[C@H](C)Oc3ccc(NS(C)(=O)=O)cc3C(=O)N([C@H](C)CO)C[C@H]2C)cc1	-1	2
COc1ccc2c3c(n(C)c2c1)[C@@H](CO)N(S(=O)(=O)c1ccc(C)cc1)CC31CCN(Cc2cccnc2)CC1	-16	-16
Cc1noc(C)c1NC(=O)Nc1ccc2c(c1)C(=O)N([C@@H](C)CO)C[C@H](C)[C@@H](CN(C)C(=O)Nc1ccc(F)cc1)O2	9	11
C[C@@H]1CN([C@@H](C)CO)C(=O)CCCn2nncc2CO[C@H]1CN(C)S(=O)(=O)c1ccc(-c2ccccc2)cc1	-10&-20	-18&-10
COc1ccc(S(=O)(=O)N(C)C[C@H]2Oc3ccc(NC(=O)Nc4c(C)noc4C)cc3CC(=O)N([C@@H](C)CO)C[C@@H]2C)cc1	-2	8
COc1ccc(NC(=O)Nc2ccc3c(c2)C(=O)N([C@@H](C)CO)C[C@H](C)[C@H](CN(C)S(=O)(=O)c2cn(C)cn2)O3)cc1	10	7
Cc1ccc(S(=O)(=O)N(C)C[C@H]2OCCCC[C@H](C)Oc3ccc(NS(=O)(=O)c4c(C)noc4C)cc3C(=O)N([C@@H](C)CO)C[C@@H]2C)cc1	?	.
COC(=O)[C@H](Cc1ccccc1)N1CC(C)(OC)O[C@@H](Cc2ccccc2)[C@H]1/C=C/C1CC1 (stereo partly drawn)	-28	-18
CC(C)NC(=O)N(C)C[C@H]1OCCCC[C@@H](C)Oc2ccc(NS(=O)(=O)c3ccc(F)cc3)cc2C(=O)N([C@H](C)CO)C[C@H]1C	14	6
COc1ccc(NC(=O)N(C)C[C@H]2OCCCC[C@@H](C)Oc3ccc(NC(=O)Cc4ccccc4)cc3C(=O)N([C@@H](C)CO)C[C@H]2C)cc1	-31	-28
CCCNC(=O)N1C[C@H](C)[C@@H](OC)CN(C)C(=O)c2cc(NC(=O)CC)ccc2OC[C@@H]1C	19	23
CC1C=NC(S(=O)(=O)N2CC[C@@H]3[C@@H](CO)N(C)c4ccc(-c5cccc(F)c5)cc4[C@@H]32)=N1 (stereo partly drawn)	-19	-13
CO[C@H]1CN(C)C(=O)c2cc(NC(=O)Nc3ccccc3F)ccc2OC[C@@H](C)NC[C@@H]1C	-9	-3
CC(C)NC(=O)Nc1ccc2c(c1)C(=O)N([C@H](C)CO)C[C@H](C)[C@@H](CN(C)C(=O)NC(C)C)OCCCC[C@@H](C)O2	24	9
CN1C(=O)c2cc(NC(=O)Cc3cccs3)ccc2OC[C@@H]2O[C@H](CC(=O)NCC3CC3)CC[C@@H]21	-5	-3
C[C@H](CO)N1C[C@H](C)[C@H](CN(C)C(=O)Nc2ccc3c(c2)OCO3)Oc2c(NC(=O)NC3CCCCC3)cccc2C1=O	-6	2
CCS(=O)(=O)N1CC2(C1)[C@H](c1ccccc1)[C@H](CO)N2CC1CCCC1	-11	-4
O=C(c1ccccc1)N1CC(=O)N2[C@H](CO)[C@@H](c3ccc(C#CC4CC4)cc3)[C@H]2C1	0	-26
C[C@H](CO)N1C[C@H](C)[C@@H](CN(C)C(=O)Nc2ccccc2)Oc2c(NS(=O)(=O)c3ccc(Cl)cc3)cccc2C1=O	1	0
CCC(=O)Nc1ccc2c(c1)OC[C@@H](C)N(C(=O)c1ccccc1F)C[C@H](C)[C@@H](OC)CN(C)C2=O	1	-1
C[C@H]1CN([C@@H](C)CO)C(=O)c2cc(NC(=O)Cn3cnnn3)ccc2O[C@H]1CN(C)Cc1ccc(C(=O)O)cc1	-3	-3
CC(C)NC(=O)N[C@@H]1CC[C@@H](CCNC(=O)C2CCC2)O[C@@H]1CO	0	7
C[C@H]1CN([C@@H](C)CO)C(=O)c2cc(NC(=O)NC3CCCCC3)ccc2O[C@H]1CN(C)Cc1ccncc1	-2	3
CNC(=O)C[C@H]1CC[C@H]2[C@@H](COC[C@H](O)CN2C(=O)c2ccccn2)O1	12	13

Another view of 2 compounds above.
Under each structure: Vaccinia inh, Vaccinia inh Venus
> CC(C)NC(=O)N[C@@H]1CC[C@@H](CCNC(=O)C2CCC2)O[C@@H]1CO
    0, 7
> CC(C)NC(=O)Nc1ccc2c(c1)C(=O)N([C@H](C)CO)C[C@H](C)[C@@H](CN(C)C(=O)NC(C)C)OCCCC[C@@H](C)O2
    24, 9

(next part)
SMILES	Vaccinia inh	Vaccinia inh Venus
Cc1ccc(S(=O)(=O)N(C)C[C@H]2OCCCC[C@H](C)Oc3ccc(NC(=O)CCCN(C)C)cc3C(=O)N([C@@H](C)CO)C[C@H]2C)cc1	24	10
C[C@@H]1CN([C@@H](C)CO)S(=O)(=O)c2ccc(C3=CCCCC3)cc2O[C@H]1CN(C)Cc1ccncc1	-27	-26
COc1cccc(C#Cc2cnc3c(c2)C(=O)N([C@H](C)CO)C[C@@H](C)[C@@H](CN(C)C(C)=O)O3)c1	7	9
Cc1ccc(S(=O)(=O)N(C)C[C@@H]2OCCCC[C@H](C)Oc3ccc(NC(=O)c4ccncc4)cc3C(=O)N([C@H](C)CO)C[C@H]2C)cc1	-5	-15
C[C@@H]1CN([C@H](C)CO)C(=O)c2cccc(NS(=O)(=O)c3ccc(Cl)cc3)c2O[C@@H]1CN(C)C(=O)Nc1ccc2c(c1)OCO2	-4	-3
O=C(NCC[C@@H]1CC[C@H](NC(=O)c2cnccn2)[C@@H](CO)O1)Nc1ccc(Cl)cc1	-3	-1
CO[C@H]1CN(C)C(=O)c2cc(NC(=O)Nc3ccc(F)cc3)ccc2OC[C@H](C)NC[C@@H]1C	-2	-12
CC=Cc1ccc2n(c1=O)C[C@H]1[C@H](CO)[C@@H](C(=O)NCc3cccc(OC)c3)N[C@@H]21 (mixture of isomers)	0	15
CCc1cnc(N2[C@@H](C#N)[C@@H](c3ccc(C4=CCCC4)cc3)[C@@H]2CO)s1	4	8
C[C@H](CO)N1C[C@H](C)[C@@H](CN(C)C(=O)Nc2cccc3ccccc23)Oc2ccc(NC(=O)Nc3ccc4c(c3)OCO4)cc2C1=O	5	-2
C[C@@H]1CN([C@H](C)CO)C(=O)c2cc(NC(=O)Nc3ccc(F)cc3)ccc2O[C@@H]1CN(C)C(=O)NC1CCCCC1	-2	-9
C[C@H]1CN([C@@H](C)CO)C(=O)c2cc(NS(=O)(=O)c3ccc(Cl)cc3)ccc2O[C@H]1CN(C)Cc1ccc(Cl)c(Cl)c1	-31	-27
COc1ccccc1S(=O)(=O)N[C@@H]1CC[C@@H](CC(=O)N2CCCCC2)O[C@H]1CO	3	3
Cc1noc(C)c1S(=O)(=O)Nc1ccc2c(c1)CC(=O)N([C@@H](C)CO)C[C@@H](C)[C@@H](CN(C)Cc1ccc(C(=O)O)cc1)O2	13	15
C[C@H]1CN([C@@H](C)CO)C(=O)c2cc(NC(=O)c3ccncc3)ccc2O[C@H]1CN(C)C(=O)Nc1cccc2ccccc12	23	9
Cc1ccccc1S(=O)(=O)N1[C@H](CO)[C@@H](c2ccc(-c3ccc(F)cc3)cc2)[C@@H]1C#N	7	-5
C[C@H]1CN([C@@H](C)CO)C(=O)Cc2cc(NC(=O)NC3CCCCC3)ccc2O[C@@H]1CN(C)Cc1ccc2c(c1)OCO2	-24	-22
COCCOC(=O)N1C(=O)[C@@]2(c3ccccc31)[C@H](C(=O)Nc1nc3ccccc3s1)[C@H]1C(=O)O[C@H](c3ccccc3)[C@H](c3ccccc3)N1[C@@H]2c1ccc(OCCO)cc1	5	3
C[C@@H]1CCCCO[C@H](CN(C)S(=O)(=O)c2cccs2)[C@@H](C)CN([C@@H](C)CO)C(=O)c2cc(NC(=O)CCC(F)(F)F)ccc2O1	-15	-17
COc1ccc(NC(=O)N(C)C[C@H]2Oc3ccc(NC(=O)C4CC4)cc3CC(=O)N([C@@H](C)CO)C[C@@H]2C)cc1	3	4
COc1cccc(-c2cccc(-c3nc(C(=O)O)cc4c3[C@@H](CCO)N(S(=O)C(C)(C)C)C4)c2)c1 (stereo partly drawn)	14	26
CN1C(=O)c2cc(NC(=O)c3cccs3)ccc2OC[C@H]2O[C@H](CC(=O)N3CCOCC3)CC[C@H]21	3	7
C[C@@H]1CN([C@H](C)CO)C(=O)c2cccc(NS(=O)(=O)c3ccc(Cl)cc3)c2O[C@H]1CN(C)C(=O)Nc1ccc(C(F)(F)F)cc1	3	6
COc1ccc(S(=O)(=O)Nc2ccc3c(c2)C(=O)N([C@@H](C)CO)C[C@H](C)[C@@H](CN(C)C(=O)Nc2ccc(C(F)(F)F)cc2)O3)cc1	6	5
O=C(C[C@H]1C=C[C@H](NC(=O)c2cccnc2)[C@H](CO)O1)NCc1ccc(Cl)c(Cl)c1	6	-1
C[C@H](CO)N1C[C@H](C)[C@@H](CN(C)C(=O)Nc2ccccc2)Oc2ccc(NC(=O)NC3CCCCC3)cc2C1=O	4	2
C[C@H](CO)N1C[C@H](C)[C@H](CN(C)C(=O)Nc2ccc(C(F)(F)F)cc2)Oc2ccc(N(C)C)cc2CC1=O	-6	-3
C[C@H](CO)N1C[C@H](C)[C@H](CN(C)Cc2ccccc2)Oc2c(NC(=O)Nc3ccc4c(c3)OCO4)cccc2C1=O	-19	-14
C[C@H]1CN([C@@H](C)CO)C(=O)c2cccc(NS(=O)(=O)c3ccccc3)c2O[C@@H]1CN(C)Cc1ccc(-c2ccccc2)cc1	-17	-14
C[C@@H]1CCCCO[C@@H](CN(C)C(=O)CCCN(C)C)[C@H](C)CN([C@H](C)CO)C(=O)c2cc(NC(=O)c3ccccc3)ccc2O1	7	2
C[C@@H]1CN([C@@H](C)CO)S(=O)(=O)c2ccc(C#CC(C)(C)O)cc2O[C@@H]1CN(C)C	2	3
COc1ccc(S(=O)(=O)Nc2cccc3c2O[C@@H](CN(C)S(=O)(=O)c2ccc(OC)cc2)[C@H](C)CN([C@@H](C)CO)C3=O)cc1	18	8
CN1C(=O)c2cc(NC(=O)C3CCC3)ccc2OC[C@@H]2O[C@H](CC(=O)NCc3ccccc3F)CC[C@H]21	5	-5
O=C(N[C@@H]1C[C@@H]2O[C@@H](CO)CC[C@@H]2O[C@@H]1CCc1ccc(-c2ccccc2)cc1)c1cnccn1	?	.
O=C(C[C@@H]1CC[C@@H]2[C@H](COC[C@@H](O)CN2Cc2ccccc2F)O1)N[C@H]1CCN(Cc2ccccc2)C1	-12	-7
C#Cc1ccc([C@H]2C=C(C(=O)NCc3ccccc3)O[C@@H](OCC)[C@@H]2CCCO)cc1	?	.
COc1ccc(S(=O)(=O)Nc2cccc3c2O[C@H](CN(C)S(=O)(=O)c2cn(C)cn2)[C@@H](C)CN([C@H](C)CO)C3=O)cc1	1	-1
C[C@H](CO)N1C[C@H](C)[C@H](CN(C)C(=O)Nc2ccc(F)cc2)Oc2ccc(NC(=O)Cc3ccccc3)cc2CC1=O	26	14
C[C@@H]1CN([C@@H](C)CO)C(=O)c2cc(NS(C)(=O)=O)ccc2O[C@@H](C)CCCCO[C@@H]1CN(C)C(=O)Cc1ccccc1	18	11
C[C@@H]1CN([C@@H](C)CO)C(=O)c2cccc(NC(=O)Nc3ccc4c(c3)OCO4)c2O[C@H]1CN(C)Cc1ccc2c(c1)OCO2	-10	0
CC(C)NC(=O)Nc1cccc2c1O[C@H](CN(C)Cc1ccc(C(F)(F)F)cc1)[C@H](C)CN([C@@H](C)CO)C2=O	21	31
CCCN(C)C[C@@H]1Oc2cc(-c3cccc(OC)c3)ccc2S(=O)(=O)N([C@H](C)CO)C[C@@H]1C	-9	-5
O=C(C[C@H]1CC[C@@H]2[C@H](COC[C@H](O)CN2C(=O)Nc2ccc(Cl)c(Cl)c2)O1)NC1CCC1	-27	-10
CCC(=O)N[C@@H]1C=C[C@@H](CC(=O)NCc2ccc(OC)cc2)O[C@H]1CO	1	3
CC(C)NC(=O)N(C)C[C@@H]1Oc2cc(C#CCN(C)C)ccc2S(=O)(=O)N([C@@H](C)CO)C[C@@H]1C	15	4
C[C@H](CO)N1C[C@H](C)[C@H](CN(C)CC2CCOCC2)Oc2ncc(C#Cc3ccccc3)cc2C1=O	-17	-3
C[C@@H]1CN([C@H](C)CO)S(=O)(=O)c2ccc(C#Cc3cccc(F)c3)cc2O[C@@H]1CN(C)C(=O)CN1CCOCC1	?	18
C[C@@H]1CN([C@H](C)CO)C(=O)c2cc(C#CCC3CCCC3)cnc2O[C@H]1CN(C)Cc1ccccn1	?	.
O=C(NCC[C@@H]1CC[C@@H](NC(=O)C2CCOCC2)[C@@H](CO)O1)Nc1ccc(Cl)cc1	10	12
Cn1cnc(S(=O)(=O)N2C[C@H](O)COC[C@H]3O[C@@H](CC(=O)NC4Cc5ccccc5C4)CC[C@@H]32)c1	-8	0

An excerpt from above in order of SMILES length, rising:
SMILES	Vaccinia inh	Vaccinia inh Venus
CCC(=O)N[C@@H]1C=C[C@@H](CC(=O)NCc2ccc(OC)cc2)O[C@H]1CO	1	3
CCCN(C)C[C@@H]1Oc2cc(-c3cccc(OC)c3)ccc2S(=O)(=O)N([C@H](C)CO)C[C@@H]1C	-9	-5
CC(C)NC(=O)N(C)C[C@@H]1Oc2cc(C#CCN(C)C)ccc2S(=O)(=O)N([C@@H](C)CO)C[C@@H]1C	15	4
Cn1cnc(S(=O)(=O)N2C[C@H](O)COC[C@H]3O[C@@H](CC(=O)NC4Cc5ccccc5C4)CC[C@@H]32)c1	-8	0
CC(C)NC(=O)Nc1cccc2c1O[C@H](CN(C)Cc1ccc(C(F)(F)F)cc1)[C@H](C)CN([C@@H](C)CO)C2=O	21	31
C[C@H](CO)N1C[C@H](C)[C@H](CN(C)C(=O)Nc2ccc(F)cc2)Oc2ccc(NC(=O)Cc3ccccc3)cc2CC1=O	26	14
C[C@@H]1CN([C@@H](C)CO)C(=O)c2cc(NS(C)(=O)=O)ccc2O[C@@H](C)CCCCO[C@@H]1CN(C)C(=O)Cc1ccccc1	18	11
